NPYLR7 ag: agonists of mosquito NPYLR7 receptor, primary screen, cell-based, Aedes aegypti, calcium fluorescence, mosquito biting behavior | HEK293T NPYLR7/Galpha15, GCaMP6s calcium fluorescence | Aedes aegypti neuropeptide Y-like receptor 7 (NPYLR7) | activation, % at 10 µM | hit rate 0.15% among 270,000 | AID 1259423, 2018; in the data active = activation above about 40%;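 also: 0% = vehicle and 100% = reference agonist at the receptor; some compounds past the cut are filed as inactive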
NPYLR7 ag max-min: second read-out of NPYLR7 ag, no call of its own (marks repeat the call); activation, %; measured here: Max-Min RFU normalised activation; some inactives read as strong as hits;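 span of the calcium signal over five minutes; 0% = vehicle and 100% = native peptide agonist; compound fluorescence can raise it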
Numbers without * were called inactive; & = joins results of further samples. This is a subset, so the mix of outcomes need not match the whole.

Structure,NPYLR7 ag,NPYLR7 ag max-min
Cc1cc(=O)[nH]c(-n2nc(C)c(CCC(=O)NCc3ccco3)c2C)n1,11,11
CNc1nnc(SCC(=O)c2cc(C)n(Cc3ccco3)c2C)s1,1,12
CCn1ncnc1C(C)NC(=O)C(=O)c1cccn1C (stereo not drawn),-3,-6
CN(Cc1ccccc1)c1cc(C(C)(C)C)nc(SCc2ccc(C(=O)NN3CCOCC3)o2)n1,-1,1
CCc1cc(NCCc2cccc(OC)c2)n2ncnc2n1,20,5
CC(C)c1nc2c(c(=O)c3ccccc3n2C)c(=O)n1Cc1ccccc1,4,3
C=CCOCC(O)CN(Cc1ccccc1Cl)CC1CC(c2ccc(F)cc2)=NO1 (stereo not drawn),-3,-1
O=C(CSc1ncnc2c1oc1ccccc12)NC1CCCC1,4,2
CC(O)c1nc2cc(NS(=O)(=O)NCc3ccccc3)ccc2n1C (stereo not drawn),9,9
C=CC(=O)N1CCN(c2nc3cc(Cl)c(Cl)cc3nc2C(=O)OCC)CC1,3,1
CC1(C(=O)NCC2CC2)Cc2c(-c3ccc4c(c3)OCO4)ccnc2O1 (stereo not drawn),0,-1
C=c1ccccc1=c1[nH]/c(=C/c2ccc(OC)c(OC)c2)c(=O)o1,0,-3
COc1ccc(-n2nnnc2CN2CCN(C(=O)c3c[nH]c4ccccc34)CC2)cc1,-1,-4
O=C(CCCn1ccnc1)N1CCCC(c2n[nH]c(=O)n2-c2ccccc2)C1 (stereo not drawn),23,14
CN=c1scc(-c2ccc(F)cc2)n1N=Cc1c(OC)cc(OC)cc1OC,6,4
CCOC(=O)C1=C(O)/C(=C\c2ccc(N(C)C)cc2)SC1=Nc1ccccc1C,11,23

Shown field by field: entries from further up
C=c1ccccc1=c1[nH]/c(=C/c2ccc(OC)c(OC)c2)c(=O)o1
  NPYLR7 ag = 0
  NPYLR7 ag max-min = -3

COc1ccc(-n2nnnc2CN2CCN(C(=O)c3c[nH]c4ccccc34)CC2)cc1
  NPYLR7 ag = -1
  NPYLR7 ag max-min = -4

O=C(CCCn1ccnc1)N1CCCC(c2n[nH]c(=O)n2-c2ccccc2)C1 (stereo not drawn)
  NPYLR7 ag = 23
  NPYLR7 ag max-min = 14

CN=c1scc(-c2ccc(F)cc2)n1N=Cc1c(OC)cc(OC)cc1OC
  NPYLR7 ag = 6
  NPYLR7 ag max-min = 4

Later entries.
Structure,NPYLR7 ag,NPYLR7 ag max-min
COC(=Nc1ccncc1)C1=C(C)C([N+](=O)[O-])NC(C(=O)O)c2ccccc21 (stereo not drawn),-8,-11
O=C(Nc1ccc(N2CCOCC2)cc1)c1c(OCc2ccccn2)nn2ccsc12,22,11
Cc1cnc(-c2c(-c3ccccc3)ncn2Cc2ccccc2CN(C)C)[nH]1,3,5
COc1cc(C)c(CNC(CO)c2ccco2)cc1OC (stereo not drawn),2,0
CCC(C(=O)NCCOc1ccc2nnc(-c3ccc(OC)cc3)n2n1)c1ccccc1 (stereo not drawn),-4,-9
COCCN1C(=O)NC(Cc2ccc(F)cc2)(C2CCN(C(=O)c3sccc3Cl)CC2)C1=O (stereo not drawn),-10,-11
COc1ccc(Cl)cc1C1=NOC2(CCC2)C(=O)N1Cc1cccc(C#N)c1,7,2
CC1CCCN(C(c2cccs2)C2Sc3nc(-c4ccco4)nn3C2=O)C1 (stereo not drawn),-1,-1
COc1ccc(OC)c(C2c3cccn3-c3ccccc3N2C(=O)CN(C(=O)c2ccc(F)cc2)C(C)C)c1 (stereo not drawn),13,24
O=C(c1ccc2nc(-c3ccncc3)[nH]c2c1)N1CCCC2CCCCC21 (stereo not drawn),1,1
Cc1cccc(Oc2cc(NC(=O)c3cc4nc(-c5ccccc5)cc(C)n4n3)cc([N+](=O)[O-])c2)c1,-10,-17
CCOC(=O)C1CCN(C(c2cccc(F)c2)c2c(O)cc(C)n(CC)c2=O)CC1 (stereo not drawn),10,4
Cc1ccccc1Oc1ncccc1CNC(=O)c1cnn2cccnc12,1,-1
Cc1c(Cl)c([N+](=O)[O-])nn1CC(=O)NCc1cccnc1,3,-1
COc1ccc(C(=O)Nc2c3c(nn2-c2ccccc2C)CS(=O)(=O)C3)cc1OC,0,-2
O=C(C1CCCN(C2CCCCC2)C1)N(CCO)Cc1ccco1 (stereo not drawn),3,-3
O=c1[nH]c(=O)n(-c2ccc(Cl)cc2)c(O)c1C=Nc1ccc(F)cc1,-9,-12
CCNC(=O)C1CCN(Cc2ccc(Cl)s2)CC1,5,6
CCn1cnc2c(-c3ccccc3)cn(CC(=O)Nc3cccc(Cl)c3C)c2c1=O,3,3
CC1(C(=O)Nc2cnc3ccccc3c2)CCN1Cc1ccoc1 (stereo not drawn),5,3
CC1c2ccc(C(=O)O)n2CCN1C(=O)OCc1ccccc1 (stereo not drawn),-3,-1
O=C(Nc1ccccc1C(F)(F)F)N1CCSC1c1cccc(Oc2ccccc2)c1 (stereo not drawn),1,11
CNc1cccc(-c2cccc(CO)c2)n1,0,-2
Cc1[nH]ncc1C(=O)N1CCC2(CCCN(CCCc3ccccc3)C2)C1 (stereo not drawn),8,4
O=C(c1csc(-c2cccs2)n1)N1CC[C@H](CO)[C@@H](O)C1,0,-2
CSc1nc(C)cc(Nc2ccc(O)cc2)n1,-11,-15
O=C(NCCc1ccccn1)C(F)(F)c1ccccc1,7,3
CCOC(=O)c1ccc(OC2CC3CCC(C2)N3C(=O)c2ccc(CSc3nccc(-c4ccc(OC)cc4)n3)cc2)cc1 (stereo not drawn),13,-6
CN1C(=CC(=O)C[n+]2ccccc2)C(C)(C)c2ccccc21,-1,-7
CCOC(=O)c1nn(Cc2cccc(OC)c2)c2c1CN(C(=O)c1cn3cc(Cl)ccc3n1)CC2,13,1
CCN(CC)c1ccc(/C=C2/SC(=S)N(CC(=O)O)C2=O)cc1,42*,43*
CN(C)CC(C)(C)CNS(=O)(=O)c1cccc2nsnc12,9,3
Cc1cc(O)c(C(c2cccc(O)c2)c2c(O)cc(C)n(CCO)c2=O)c(=O)n1CCO,8,8
CN1CCN(c2nc(-c3cccnc3)nc3ccccc23)CC1,8,13
CCOC(=O)C1CCN(CC(=O)N2N=C(c3ccc(C)cc3C)CC2c2ccccc2OC)CC1 (stereo not drawn),-8,1
Cc1cc(N(C)CCCn2cccn2)nc(-c2cccnc2)n1,-2,-9
Cc1nn2cccnc2c1C(=O)OC1CCC(NC(=O)OC(C)(C)C)CC1 (stereo not drawn),-2,0
Cc1c(CN(C)C(=O)c2cn(CC3COc4ccccc4O3)nn2)[nH]c2ccccc12 (stereo not drawn),0,-7
Cn1cc(C(=O)Nc2nnc(Cc3ccc(F)cc3)s2)ccc1=O,-7,-7
Cc1ccc(N2CCN(c3ccc(S(=O)(=O)C4CCCCC4)nn3)CC2)c(C)c1,1,-1
NC(=O)c1cc(CNS(=O)(=O)c2ccc(F)c(F)c2)on1,5,1
CCCCN(CC(=O)N1CCc2sccc2C1c1ccccc1C)C(=O)c1ccccc1Br (stereo not drawn),12,8
CN(C)CCN(Cc1cc(N)ccc1N(C)C)C(=O)CC(C)(C)C,12,21
O=C(NCCc1cnccn1)c1coc(COc2ccccc2)n1,7,1
NCc1nnnn1C1CCCCC1,1,1
Cc1ccc(-n2c(C)nnc2SCCC#N)cc1,2,6
COC(=O)C(N=Cc1cc([N+](=O)[O-])cc(Br)c1O)C12CC3CC(CC(C3)C1)C2 (stereo not drawn),-1,-3
CCOc1ccc(NC(=O)CC2S/C(=N/N=C3/C=C(C)CC(C)(C)C3)NC2=O)cc1 (stereo not drawn),4,2
O=C(c1c(F)cccc1F)N1CCN(c2nc3nccc(-c4ccc(N5CCOCC5)cc4)n3n2)CC1,0,-2
CCN1CCN(c2c(CN(CCOC)C(=O)C3CCCC3)c(C)nn2-c2ccccc2)CC1,-2,-1
COc1cc(NC(C)CCCN)c2ncccc2c1 (stereo not drawn),-6&-7&-6,-10&-14&-10
CC(C)c1cc(Br)c(NC(=O)N2CCC[C@H]2C(=O)N2CCC(C(=O)N3CCCCC3)CC2)c(Br)c1,-2,11
CCOC(=O)c1ccc(OC2CC3CCC(C2)N3C(=O)c2ccc(CSc3nccc(C(F)(F)F)n3)cc2)cc1 (stereo not drawn),9,-5
CCOC(=O)c1sc(N)c(C#N)c1COc1ccc(F)c2c1C(=O)CC2C (stereo not drawn),0,-1
O=C(CSc1ccc(C(F)(F)F)cn1)NCCCO,4,4
CN(C)c1ccc(C(O)c2nccn2C)cc1 (stereo not drawn),-3,-3

Next results follow:
Structure,NPYLR7 ag,NPYLR7 ag max-min
Cc1ccc(Cn2c3c(c(C)c2C(=O)NN2CCOCC2)CCCC3)cc1,-2,9
Cc1c(-c2ccc(Cl)cc2)c(=O)oc2c3c(ccc12)OCN(CCN1CCOCC1)C3,3,6
O=C(COC(=O)C1CCN(C(=O)Nc2ccccc2)CC1)Nc1cccc(Br)c1,-3,-7
CCc1ccc(S(=O)(=O)N2CCN(c3ncnc4c3nnn4C)CC2)s1,-1,13
CCCCCOc1ccc(C(=O)N(C)C2CCS(=O)(=O)CC2)cc1,0,0
CNC(=O)Cn1nc(-c2ccc(OC)c(OC)c2)c2sc(C)nc2c1=O,0,0
COCCn1cc(C(=O)N2CCNCC2)c2nn(-c3ccccc3)c(=O)c-2c1,-4,-5
COCCN(Cc1c(-c2ccccc2)noc1N1CCCCC1C)C(=O)c1cccc(OC)c1 (stereo not drawn),7,11
CC(C)(C)NC(=O)CC12CC3CC(CC(C3)C1)C2,-18,-25
COC(=O)C(C)Sc1nnc(-c2cnn(-c3ccccc3)c2-n2cccc2)o1 (stereo not drawn),-1,0
CCOC(=O)CNC(=O)NCc1nnc(SCc2ccccc2C)n1-c1cc(Cl)ccc1Cl,-3,4
COc1ccc(-n2ccnc2-c2ccc(C#CC(C)(C)O)cc2)cn1,57*,53*
Cc1cccc(-c2cnc(C)nc2C2CCCN(C(=O)/C=C/c3cc(F)ccc3F)C2)c1 (stereo not drawn),7,5
CC(=O)c1ccc(C(=O)Nc2nc(-c3ccc(C)cc3)cs2)cc1,-10,-15
CN1CCN(C(CNC(=O)c2ccco2)c2ccc3c(c2)CCN3C)CC1 (stereo not drawn),6,1
Cc1cc(N2C(=O)CCS2(=O)=O)ccc1S(=O)(=O)N(C)CCc1ccncc1,3,1
Cc1ccc(Cn2c(CN3CC(C)CC(C)C3)nc3c2c(=O)n(C)c(=O)n3C)cc1 (stereo not drawn),6,2
Cn1c(=O)oc2cc(S(=O)(=O)NC3CCCCC3)ccc21,4,5
O=C1N(Cc2ccccc2)C(=O)C2(CCN(Cc3c[nH]c4ccccc34)CC2)N1CCc1ccccc1,10,3
CC(CS(C)(=O)=O)N(C)C(=O)NCCCc1ccc(Cl)cc1 (stereo not drawn),0,-6
COc1ccc(N2CC(C(=O)NCCc3ccccn3)CC2=O)cc1OC (stereo not drawn),7,4
CCn1ncc(C(=O)N(Cc2ccsc2)C2CC2)c1C,-1,-2
O=C(Oc1ccc(/C=N\Nc2nc(N3CCCC3)nc(N3CCOCC3)n2)cc1)c1ccco1,-11,-14
O=C(Nc1cc(C(F)(F)F)ccc1-n1cccn1)c1ccccc1I,4,3
Cn1c(N)c(C(=S)NC(=O)c2cccs2)c(=O)n(C)c1=O,0,-2
CCN1C(=O)C(=Cc2ccccc2OCc2ccccc2)SC1=S,10,14
O=C(O)c1cccn(Cc2ccc(C(F)(F)F)cc2)c1=O,-1,-1
COc1cc2c(cc1OC)C1CN(C(=O)COc3c(F)c(F)c(F)c(F)c3F)CC(=O)N1CC2 (stereo not drawn),-10,-4
O=C(C1CC1)N1CCN(Cn2c(=O)oc3cc(Cl)ccc32)CC1,4,1
O=C(Cc1nc(-c2ccncc2)n[nH]1)NC1CCCCC1,3,7
CCCNC(=O)CSc1c(CC)cnc2c1c(=O)n(C)c(=O)n2C,15,20
CC(OC(=O)C1CCCCN1C)C(=O)N1CCCCCC1 (stereo not drawn),4,0

Entries of single compounds as entered above:
Profile of CCC(C(=O)NCCOc1ccc2nnc(-c3ccc(OC)cc3)n2n1)c1ccccc1 (stereo not drawn) = NPYLR7 ag: -4; NPYLR7 ag max-min: -9
Profile of C=CCOCC(O)CN(Cc1ccccc1Cl)CC1CC(c2ccc(F)cc2)=NO1 (stereo not drawn) = NPYLR7 ag: -3; NPYLR7 ag max-min: -1

Additional structures.
Structure,NPYLR7 ag,NPYLR7 ag max-min
CCOC(OCC)c1cc(-c2ccncc2)n[nH]1,4,3
O=C(NCC1CCCO1)c1nn(-c2ccc(Cl)cc2)c(=O)n(Cc2ccc(C(F)(F)F)cc2)c1=O (stereo not drawn),12,9
COc1ccc(CNC(=O)C(NC(=O)Nc2ccccc2)C(C)C)cn1 (stereo not drawn),-2,-1
C=CCN(CC(=O)N(CCc1ccc(OC)c(OC)c1)Cc1ccc(C)o1)C(=O)Cc1ccccc1,12,10
CCN(CC)S(=O)(=O)c1ccc(N2CCN(CC(N)=O)CC2)nc1,1,24
CCOc1ccccc1C(C)(C)CCl,7,7
COc1ccc(C)c2sc(N3CCN(C(C)=O)CC3)nc12,-2,-3
Cc1ccc(NC(=O)N2CCc3nc(Cc4cccc(F)c4)nc(N4CCOCC4)c3C2)c(C)c1,14,29
COCCN(CC(=O)N(Cc1ccccc1)Cc1ccco1)C(=O)c1ccc(OC)cc1OC,1,15
Cc1cc(C)n(-c2cc(N3CCN(S(=O)(=O)N(C)C)CC3)nc(C)n2)n1,-4,-11

From PubChem BioAssay
